D2 ag = human D2 receptor agonism in beta-arrestin assay; P14416; DiscoveRx PathHunter D2 beta-arrestin, luminescence, 90 min; 100% = 57 uM dopamine signal; activation, % (no concentration beside the values); 360,000 compounds, 0.084% hits; in the data active = activation above about 40%; inconclusive = about 15% to 40%; inactive = below about 15%; note: compound concentration not given in the record; the text of the record calls up to 30% inactive
Target sequence (P14416 whole entry, looked up): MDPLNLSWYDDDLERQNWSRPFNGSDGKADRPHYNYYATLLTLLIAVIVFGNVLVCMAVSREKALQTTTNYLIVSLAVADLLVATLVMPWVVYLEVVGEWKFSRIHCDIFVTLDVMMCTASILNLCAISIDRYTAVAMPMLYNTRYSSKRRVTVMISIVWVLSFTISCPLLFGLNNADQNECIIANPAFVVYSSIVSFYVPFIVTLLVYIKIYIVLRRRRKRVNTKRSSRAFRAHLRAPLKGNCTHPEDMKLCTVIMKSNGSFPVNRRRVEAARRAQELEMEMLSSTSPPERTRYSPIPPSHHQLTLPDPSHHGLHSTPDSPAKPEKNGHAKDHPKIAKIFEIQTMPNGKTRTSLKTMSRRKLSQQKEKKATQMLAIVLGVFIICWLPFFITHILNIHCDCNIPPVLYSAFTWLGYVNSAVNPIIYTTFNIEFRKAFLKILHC
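Agonist mode: compounds alone added to overnight-plated D2 PathHunter cells for 90 min at 37 C, with 57 uM final dopamine (EC100) defining full response. Beta-arrestin recruitment detected by chemiluminescent reagent, read after 1 h at ambient temperature.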
TRPML1 ag = human mucolipin-1 channel agonism. activation, % (no concentration beside the values). AID 624414. 410,000 compounds, 0.12% hits. Q9GZU1. TRPML1-expressing cells, Ca2+ dye fluorescence, FDSS; host cell line not named in the record; reference of the full effect not given here; in the data active = activation above about 50%; inconclusive = about 30% to 50%; inactive = below about 30%; note: 0% is about no effect; the text of the record puts the active cut at 80%
Target sequence (Q9GZU1 whole entry, looked up): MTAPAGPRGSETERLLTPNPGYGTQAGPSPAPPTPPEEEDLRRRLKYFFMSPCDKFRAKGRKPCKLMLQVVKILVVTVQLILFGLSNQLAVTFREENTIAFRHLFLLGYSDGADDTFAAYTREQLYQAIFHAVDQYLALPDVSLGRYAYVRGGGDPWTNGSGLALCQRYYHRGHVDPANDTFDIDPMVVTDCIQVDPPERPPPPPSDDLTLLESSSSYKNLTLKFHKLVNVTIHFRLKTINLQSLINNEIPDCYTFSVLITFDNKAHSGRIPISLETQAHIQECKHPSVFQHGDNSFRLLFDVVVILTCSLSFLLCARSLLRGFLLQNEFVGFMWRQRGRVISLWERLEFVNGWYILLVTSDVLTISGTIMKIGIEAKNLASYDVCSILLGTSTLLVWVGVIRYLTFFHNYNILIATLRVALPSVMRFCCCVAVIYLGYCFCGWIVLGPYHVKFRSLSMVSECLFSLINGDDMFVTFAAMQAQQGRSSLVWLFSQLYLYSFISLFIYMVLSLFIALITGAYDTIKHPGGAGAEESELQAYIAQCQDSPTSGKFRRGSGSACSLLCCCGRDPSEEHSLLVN
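TRPML1-DL cells, Tet-induced overnight (~16 h, 37 degrees C), loaded 45-90 min at room temperature with Ca8 no-wash calcium dye plus quencher. FDSS fluorescence: 10 s baseline, compound pin-transfer, 110 s agonist read, then EC80 54-4 (4uM final) and 110 s antagonist read.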
CtBP-E1A inh = blocks the CtBP interaction with E1A; 340,000 compounds, 0.49% hits; AlphaScreen GST-E1A/His-CtBP binding, 1536-well; stronger effect = lower value; control for the full effect not named in the record; activity change, % (test concentration not listed); in the data active means activity change below about -65%; inconclusive means about -30% to -65%; inactive means above about -30%; note: % is set by controls: 0 for no effect and ±100 for the full control effect
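AlphaScreen with 125 nM GST-E1A and 125 nM His-CtBP (5X stocks) in Tris pH 8.0, 300 mM NaCl, BSA, Tween 20, TCEP. Compounds preincubated 2 h at 37 deg C, then glutathione donor/nickel acceptor beads added for 1 h at 37 deg C in dark.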
D2 potentiator = human D2 receptor positive allosteric modulation; 360,000 compounds, 0.23% hits; potentiation, % (concentration not given with the values); AID 624464; DiscoveRx D2 beta-arrestin cells, luminescence, 90 min; 100% = 57 uM dopamine signal; active = potentiation of 50% or more; inconclusive = 30% to 50%; inactive = 30% or less;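 note: tested on top of an EC20 dose of dopamine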
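PathHunter D2 cells, attached overnight at 37 deg C, received compound in DMSO plus dopamine at EC20 (50 nM final) for 90 min at 37 deg C. Beta-arrestin recruitment was read as luminescence after 1 h with detection reagent at ambient temperature.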
Six1-Eya2 blk = inhibitors of human Six1/Eya2 interaction; Q15475+O00167; AlphaScreen GST-Six1/His-Eya2 binding, biochemical; stronger effect = lower value; control for the full effect not named in the record; activity change, % (concentration not given with the values); 360,000 compounds, 0.56% hits; AID 651725; in the data active = activity change below about -65%; inconclusive = about -30% to -65%; inactive = above about -30%; note: % is set by controls: 0 for no effect and ±100 for the full control effect
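Homogeneous AlphaScreen proximity assay pairing GST-Six1 with His-tagged Eya2 (added as 5X mix: 250 nM and 500 nM) in 50 mM Tris pH 8.0, 300 mM NaCl, 1 mM TCEP. Glutathione donor and nickel acceptor beads; 1 h, 37 °C, dark.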
PINK1 modulator = PINK1 expression modulation. AID 624263. Potency, µM (series often up to 76.6 µM), inactives show top-dose activation (PINK1 increase), most hits filed as activators. 410,000 compounds, 0.2% hits. PINK1 immunofluorescence, high-content cytometry, 24 h; active = well fitted activation curve with a large enough effect; inconclusive = small, poorly fitted or top-dose-only effect; inactive = flat fitted curve, though single readings scatter; cell line not stated here;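 note: potency is the fitted concentration of half-maximal effect; % of control where 0% means no effect; nearly all actives have a fitted effect of over 65% in size; a mitochondrial uncoupler was the plate control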
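Decision-based qHTS: stable cells, 24 h exposure to five compound concentrations, CCCP as control. Fixed cells stained for PINK1 plus nuclear, mitochondrial and cell markers, cytometer read.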
The depositor's hits bear a star; ? = inconclusive; nt = no result given; & = joins results of further samples; [ ] = remark or other dose.

SMILES	D2 ag	TRPML1 ag	CtBP-E1A inh	D2 potentiator	Six1-Eya2 blk	PINK1 modulator
O=C(NCc1cccc(C(F)(F)F)c1)c1ccc2c(c1)OCCO2	-3.9	2.2	1	-5	6	3.1%
Cn1c(O)c(N=NC(=O)c2cccc(S(=O)(=O)N3CCCCC3)c2)c2ccccc21	-2.4	0.0	?	-4	?	0.1%
CN(Cc1ccccc1)C(=O)COc1ccccc1Cl	-6.5	3.0	nt	-3	7	0.1%
O=C(c1ccco1)[C@@H]1[C@@H]2C(=O)N(c3ccc(F)cc3)C(=O)[C@@H]2[C@H]2C=Cc3ccccc3N21	-1.1	0.2	4	-1	-12	-1.3%
CCN(CC(=O)N1CCCC1)S(=O)(=O)c1ccccc1	-3.2	-0.7	nt	-10	-2	1.7%
CCCCNC(=S)NNC(=O)c1nn(C)cc1Cl	-5.1	-0.3	0	-1	2	1.2%
CC(C)[C@H](Nc1ncnc2c1oc1ccccc12)C(=O)O	-0.5	0.0	3	-4	11	-0.3%
CC(=O)CC(=O)Nc1ccc(C(N)=O)cc1	-7.3	-0.7	-7	1	-2	0.2%
CCOC(=O)c1oc2ccc(S(=O)(=O)n3nc(-c4ccc(OC)cc4)cc3N)cc2c1C	6.1	-0.5	3	0	-4	9.5%
COCCn1c(SCC(=O)Nc2cccnc2Cl)nc2cc(Cl)ccc2c1=O	1.4	4.2	-8	-2	-1	2.3%
CC1CC(=O)Nc2ccccc2N1C(=O)COc1ccc2ccccc2c1 (configuration not stated)	2.2	0.8	-13	2	4	1.2%
COC(=O)N/N=C/c1cn(Cc2ccccc2Cl)c2ccccc12	0.8	1.0	-7	16	-9	5.1%
COc1ccc2c(c1)CCc1c(C(=O)NCCCn3ccnc3)noc1-2	2.6	0.6	0	-11	-11	?
CC1=Nc2ccccc2/C1=C/c1nc(-c2ccc(C)s2)oc1O	-5.0	20	nt	-10	-2	2.8%
O=C1CNC(=O)/C(=C\c2ccc(F)cc2)N1	3.3	0.5	1	5	0	2.2%
C#Cc1ccc([C@@H]2C=C(C(=O)NCc3nc4ccccc4[nH]3)O[C@H](OCC)[C@H]2CCCO)cc1	1.9	-0.4	-3	2	-11	2.1%
Cc1c(Cl)ccc2c1NC(=O)C21NC(CCC(N)=O)[C@H]2C(=O)N(c3ccc(Cl)cc3)C(=O)[C@H]21 (some centres not stated)	-3.6	-0.5	-13	-8	0	0.9%
Cc1ccc(S(=O)(=O)CCc2ccccn2)cc1	-2.4	-1.0	6	-4	10	0.2%
CC(C)/C=N/NC(=O)c1cccc(N2CCCC2=O)c1	0.4	-0.5	-4	-11	-7	-0.7%
O=C(NC(=S)Nc1cc(Cl)ccc1N1CCOCC1)c1ccc(-c2cccc(Cl)c2)o1	-0.9	2.4	4	2	-1	10%[38.3 µM]
C=CCc1ccccc1OCC(O)CN(C(C)C)C(C)C (configuration not stated)	-2.5	-0.9	-1	-2	2	-2.3%
COC(=O)c1sccc1S(=O)(=O)N1CCCC(N(C)CCc2ccccn2)C1 (configuration not stated)	-3.2	-0.5	6	-13	3	0.3%
CC(C)N(C(=O)[C@H]1C[C@H](CC(=O)NCCCn2ccnc2)C(=O)N2CCc3c([nH]c4cc(CCC(=O)N(C)C)ccc34)[C@]12C)C(C)C	-0.6	2.0	4	0	3	-1.1%
O=C(NCc1ccc(F)cc1)c1cc(C2CCCCN2S(=O)(=O)c2ccc(F)cc2F)on1 (configuration not stated)	-6.1	-0.3	-3	-4	-7	-0.9%
COc1ccc(N2C(=O)CC(n3c(CCCCO)nc4ccccc43)C2=O)cc1 (configuration not stated)	0.7	0.9	3	-15	12	-0.4%
CC1Cc2ccccc2N1C(=O)CSc1nnc2c(n1)[nH]c1ccc(F)cc12 (configuration not stated)	0.2	2.6	-14	-11	-17	6.2%
O=C(NC1CCCC1)C(c1ccc(F)cc1)N(Cc1ccc(F)cc1)C(=O)CCl (configuration not stated)	-2.9	0.4	12	8	16	-4.4%
CCOC(=O)[C@H]1[C@H]2COc3ccc(Br)cc3[C@@H]2N2C(=O)c3ccc(F)cc3NC(=O)[C@@]12C	6.5	1.7	nt	0	-20	3.9%
CSC1=NCCN1S(=O)(=O)c1ccc(NC(C)=O)cc1	1.5	0.2	nt	-3	6	0.5%
COc1ccccc1N(CC(=O)NCc1cccnc1)S(C)(=O)=O	-0.2	0.8	3	-11	9	nt

Only D2 potentiator, for 7 of the compounds above:
canonical_smiles,D2 potentiator
O=C(NC(=S)Nc1cc(Cl)ccc1N1CCOCC1)c1ccc(-c2cccc(Cl)c2)o1,2
C=CCc1ccccc1OCC(O)CN(C(C)C)C(C)C (configuration not stated),-2
COC(=O)c1sccc1S(=O)(=O)N1CCCC(N(C)CCc2ccccn2)C1 (configuration not stated),-13
CC(C)N(C(=O)[C@H]1C[C@H](CC(=O)NCCCn2ccnc2)C(=O)N2CCc3c([nH]c4cc(CCC(=O)N(C)C)ccc34)[C@]12C)C(C)C,0
O=C(NCc1ccc(F)cc1)c1cc(C2CCCCN2S(=O)(=O)c2ccc(F)cc2F)on1 (configuration not stated),-4
COc1ccc(N2C(=O)CC(n3c(CCCCO)nc4ccccc43)C2=O)cc1 (configuration not stated),-15
CC1Cc2ccccc2N1C(=O)CSc1nnc2c(n1)[nH]c1ccc(F)cc12 (configuration not stated),-11

Next section
SMILES	D2 ag	TRPML1 ag	CtBP-E1A inh	D2 potentiator	Six1-Eya2 blk	PINK1 modulator
COC(=O)[C@H]1C[C@H]2[C@@H]3CC[C@H]4C[C@@H](OC)CC[C@]4(C)[C@H]3CC[C@]2(C)[C@@]2(CCCO2)O1	2.8	-0.4	5	nt	1	5.9%
CCOC(=O)c1c(N2C(=O)Nc3ccccc3N2O)sc2c1CCCC2	-0.3	-0.7	-3	-1	-5	1.1%
C=C(C)CN(CC)CCC(=O)Nc1ccc(OC)cc1OC	-2.3	-0.9	4	-7	4	-0.9%[38.3 µM]
COCC1CCN(Cc2nc(COc3ccccc3)no2)C1 (configuration not stated)	-1.1	-0.6	5	-1	8	-0.3%
O=C1CCc2cc(S(=O)(=O)Nc3ccccc3)ccc2N1	7.0	-0.8	11	-1	0	1.3%
CN(C)/C=C(\C=O)c1ncc(C(F)(F)F)cc1Cl	4.6	1.5	-2	-20	0	-0.5%
CCOc1ccc(-n2c(Cc3cc(=O)[nH]c(=O)[nH]3)nnc2SCC)cc1	-4.3	-1.0	10	-11	1	-1.8%
C#CCOCCOCCOCCNc1nc(N2CCN(C(=O)[C@H](CCC(=O)O)n3cc(CN)nn3)CC2)nc(N2CCN(C(=O)[C@H](CCCCN)n3cc([C@@H](N)CC(N)=O)nn3)CC2)n1	-7.1	-0.7	-13	-4	3	0.2%
CCOC(=O)c1ccc(N/C=C\C(=O)c2cccc(OC)c2)cc1	-1.2	2.7	4	4	6	5.1%
COc1ccc(NC(=O)C2=C(C)C(=O)OC23CCC(C)CC3)cc1Cl (configuration not stated)	1.5	2.0	-5	4	-4	3.2%
O=C(CNC(=O)c1cccs1)OCc1c(F)cccc1Cl	-5.2	-0.2	4	-5	4	-0.7%
COC(=O)CSc1nnc(CSc2nc(C)cc(C)n2)o1	-0.9	1.2	10	-6	3	0.8%
Cc1ccccc1-n1nc(C)c(N=O)c1N	-3.6	0.7	nt	-10	18	0.8%
O=C(CCc1ccccc1)N1CCN(c2ccc(F)cc2)CC1	1.5	-0.5	1	-3	-2	-0.5%
O=C(NCCc1c[nH]c2ccccc12)/C(=C\c1cccnc1)NC(=O)c1ccccc1F	2.2	6.1	1	3	-8	2.0%
CCn1nc(NC(=O)c2ccccn2)c2cc3cccc(C)c3nc21	-0.9	-0.2	19	0	18	10%
OC(c1cc(Cl)cc(Cl)c1)c1ncc(-c2ccccc2F)[nH]1 (configuration not stated)	-3.1	1.0	-23	-3	-23	10%
C=CCn1c(O)c(N=NC(=S)Nc2cccc(OC)c2)c2ccccc21	-8.0	0.1	?	-20	?	10%
C=CCNc1nc(SC)nc2ccsc12	-0.7	-0.9	1	-18	-2	-1.9%
COc1ccc(OC)c(C2=C/C(=C/c3ccccn3)C(=O)O2)c1	-12	?	0	-9	-5	13%

Next part, overlapping the part above by 3 compounds.
SMILES	D2 ag	TRPML1 ag	CtBP-E1A inh	D2 potentiator	Six1-Eya2 blk	PINK1 modulator
C=CCn1c(O)c(N=NC(=S)Nc2cccc(OC)c2)c2ccccc21	-8.0	0.1	?	-20	?	10%
C=CCNc1nc(SC)nc2ccsc12	-0.7	-0.9	1	-18	-2	-1.9%
COc1ccc(OC)c(C2=C/C(=C/c3ccccn3)C(=O)O2)c1	-12	?	0	-9	-5	13%
COc1cccc(N2CCN(C(=O)c3[nH]c(C)c(C(C)=O)c3C)CC2)c1	-2.6	-0.5	8	23	-9	6.1%
CC(C)c1ccc(CN(C(=O)c2cccs2)C2CCS(=O)(=O)C2)cc1 (configuration not stated)	-6.2	-0.5	17	-10	4	1.7%
Cc1ccc2cc(CN(CCN(C)C)C(=S)Nc3ccccc3)c(=O)[nH]c2c1C	-5.2	1.1	0	-2	2	1.8%
COC(=O)CCC(=O)COc1ccc(OC)cc1C#N	1.6	-0.5	-6	-3	11	-0.6%
COc1ccccc1N(CC(=O)NCCSCc1cccc(Cl)c1)S(C)(=O)=O	-1.1	1.3&-1.5	6	2	4	0.3%&0.2%
COC(=O)[C@@H]1C[C@@]2(O)[C@H](O)[C@H](O)[C@H](O)C[C@H]2N1C/C=C/c1ccccc1	-0.3	-0.8	2	-5	-1	3.4%
CSCCC(NC(=O)c1ccco1)C(=O)N(C)CC(=O)Nc1c(Cl)cccc1Cl (configuration not stated)	-6.7	-0.4	-3	14	2	-0.9%
CC(=O)c1ccc(NC(=O)C2CCCN(C(=O)c3ccc(Cl)cc3)C2)cc1 (configuration not stated)	-2.2	-0.6	-2	-1	12	3.1%
CS(=O)(=O)c1cccc(-c2nnc(NC(=O)c3ccc4ncsc4c3)o2)c1	-0.5	-0.2	-16	-1	-4	2.1%
CCSc1nnc(NC(=O)CSc2nccn2-c2cccc(C)c2C)s1	1.8	1.0	-2	0	-15	2.1%
Cc1ccc(-c2nnc(N3CCN(C(=O)c4cccs4)CC3)c3ccccc23)cc1	-3.2	0.2	nt	-28	1	-1.0%
COc1ccccc1C(=O)NC(CCSC)C(=O)NCC(c1ccco1)N(C)C (configuration not stated)	-4.2	-1.3	5	-1	-3	3.0%
O=C(C[C@H]1C/C=C\C[C@@H](Cc2ccc(F)cc2)C(=O)O[C@H](c2ccccc2)CNC1=O)NCCO	-0.4	-0.6	5	-43	5	-0.5%
